Ran FRET: inhibitors of Ran–importin-beta complex formation, primary screen, biochemical, CFP-Ran/YFP-importin-beta FRET, RCC1, cell-free (AID 434961); 7,700 compounds, 0.2% hits; CFP-Ran/YFP-importin-beta FRET, cell-free; stronger effect = higher value; inhibition, %;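 active = more than half of the replicate wells above 15% inhibition; inconclusive = exactly half above it; inactive = fewer than half above it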;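 note: 0% = DMSO wells and 100% inhibition = RanGDP control wells on each plate; stock of unstated strength diluted about 400-fold; mean of two wells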
Numbers without * were called inactive; ? = inconclusive.

Ran FRET | Molecule
-0.1 | Cc1noc(C)c1S(=O)(=O)Nc1ccc2c(c1)CC(=O)N([C@@H](C)CO)C[C@H](C)[C@@H](CN(C)C(=O)Nc1ccc(F)cc1)O2
-1.2 | C[C@@H]1CN([C@@H](C)CO)C(=O)c2cc(NS(C)(=O)=O)ccc2O[C@@H](C)CCCCO[C@@H]1CN(C)Cc1ccncc1
? | C[C@@H]1CN([C@H](C)CO)C(=O)c2cccc(NC(=O)NC3CCCCC3)c2O[C@H]1CN(C)C(=O)NC1CCCCC1
-0.9 | C[C@H]1CN([C@@H](C)CO)C(=O)c2cc(NS(=O)(=O)c3cn(C)cn3)ccc2O[C@H]1CN(C)C(=O)Nc1ccc(F)cc1
1.8 | C[C@H]1CN([C@@H](C)CO)C(=O)c2cc(NC(=O)CCCN(C)C)ccc2O[C@H]1CN(C)C(=O)Nc1ccccc1
4.4 | C[C@H](CO)N1C[C@H](C)[C@H](CN(C)Cc2ccncc2)Oc2ncc(C#CC(C)(C)O)cc2C1=O
9.0 | Cc1noc(C)c1NC(=O)Nc1ccc2c(c1)CC(=O)N([C@@H](C)CO)C[C@@H](C)[C@H](CN(C)C(=O)NC(C)C)O2
-0.7 | C[C@@H]1CN([C@H](C)CO)C(=O)CCCn2cc(nn2)CO[C@H]1CN(C)S(=O)(=O)c1ccc(Oc2ccccc2)nc1
-1.0 | CNC[C@@H]1Oc2c(NS(=O)(=O)c3c(C)noc3C)cccc2C(=O)N([C@H](C)CO)C[C@@H]1C
-2.1 | C[C@@H]1CN([C@@H](C)CO)C(=O)c2cc(NC(=O)c3ccncc3)ccc2O[C@@H]1CN(C)C

Next part:
Ran FRET | Molecule
-0.8 | C[C@@H]1CN([C@@H](C)CO)C(=O)Cc2cc(NC(=O)Cc3cn(C)c4ccccc34)ccc2O[C@H]1CN(C)Cc1ccncc1
? | C[C@@H]1CN([C@@H](C)CO)C(=O)c2cc(NC(=O)Nc3ccccc3)ccc2O[C@H]1CN(C)Cc1ccncc1
-6.1 | Cc1noc(C)c1NC(=O)Nc1ccc2c(c1)CC(=O)N([C@H](C)CO)C[C@@H](C)[C@@H](CN(C)C)O2
9.7 | CC(C)NC(=O)N(C)C[C@@H]1OCc2cn(nn2)CCCC(=O)N([C@H](C)CO)C[C@@H]1C
0.1 | CC(C)NC(=O)N(C)C[C@H]1OCCCC[C@H](C)Oc2ccc(NC(=O)Cc3ccccc3)cc2C(=O)N([C@H](C)CO)C[C@H]1C
4.7 | C[C@@H]1CN([C@H](C)CO)C(=O)c2cc(NS(C)(=O)=O)ccc2O[C@@H](C)CCCCO[C@@H]1CN(C)C(=O)c1ccncc1
0.1 | Cc1noc(C)c1NC(=O)N(C)C[C@H]1OCCCC[C@H](C)Oc2ccc(NS(C)(=O)=O)cc2C(=O)N([C@@H](C)CO)C[C@H]1C
-0.6 | COc1ccc(CN(C)C[C@H]2Oc3c(NC(=O)NC4CCCCC4)cccc3C(=O)N([C@@H](C)CO)C[C@H]2C)cc1
-1.7 | C[C@@H]1CN([C@H](C)CO)C(=O)Cc2cc(NC(=O)Cc3cn(C)c4ccccc34)ccc2O[C@@H]1CN(C)S(=O)(=O)c1cccs1
-2.8 | COc1ccc(CN(C)C[C@H]2Oc3ccc(NC(=O)Cc4ccccc4)cc3CC(=O)N([C@@H](C)CO)C[C@@H]2C)cc1

(listing goes on)
Ran FRET | Molecule
0.6 | C[C@H](CO)N1C[C@H](C)[C@H](CN(C)C(=O)Nc2ccc(F)cc2)Oc2c(NS(=O)(=O)c3ccc(Cl)cc3)cccc2C1=O
-1.3 | C[C@@H]1CN([C@H](C)CO)C(=O)c2cccc(NC(=O)c3nc4ccccc4s3)c2O[C@@H]1CN(C)C(=O)NC1CCCCC1
3.8 | C[C@@H]1CN([C@@H](C)CO)C(=O)c2cc(NS(=O)(=O)c3cccs3)ccc2O[C@@H](C)CCCCO[C@@H]1CN(C)C(=O)c1ccncc1
0.3 | CNC[C@H]1Oc2ccc(NC(=O)CCC(F)(F)F)cc2C(=O)N([C@H](C)CO)C[C@@H]1C
-3.4 | C[C@H](CO)N1C[C@H](C)[C@@H](CN(C)C(=O)NC2CCCCC2)Oc2ccc(NC(=O)c3ccncc3)cc2CC1=O
-1.7 | C[C@@H]1CN([C@H](C)CO)C(=O)Cc2cc(NS(=O)(=O)c3cn(C)cn3)ccc2O[C@@H]1CN(C)Cc1ccccc1
1.4 | CNC[C@@H]1Oc2c(NC(=O)Nc3c(C)noc3C)cccc2C(=O)N([C@H](C)CO)C[C@H]1C
3.3 | C[C@H](CO)N1C[C@H](C)[C@@H](CN(C)Cc2ccc(Cl)c(Cl)c2)Oc2c(NS(=O)(=O)c3cccs3)cccc2C1=O
-2.2 | CNC[C@H]1OCc2cn(nn2)CCCC(=O)N([C@@H](C)CO)C[C@@H]1C
1.1 | Cc1noc(C)c1NC(=O)N(C)C[C@@H]1Oc2c(NC(=O)NC3CCCCC3)cccc2C(=O)N([C@@H](C)CO)C[C@@H]1C

Additional compounds follow:
Ran FRET | Molecule
0.2 | C[C@@H]1CN([C@H](C)CO)C(=O)c2cccc(NS(=O)(=O)c3cccs3)c2O[C@@H]1CN(C)S(=O)(=O)c1ccc(Cl)cc1
-4.1 | CC(C)NC(=O)Nc1ccc2c(c1)C(=O)N([C@@H](C)CO)C[C@H](C)[C@@H](CN(C)S(=O)(=O)c1cn(C)cn1)OCCCC[C@@H](C)O2
2.7 | C[C@H]1CN([C@@H](C)CO)C(=O)Cc2cc(NC(=O)NC3CCCCC3)ccc2O[C@@H]1CN(C)Cc1ccncc1
-1.5 | C[C@H]1CCCCO[C@H](CN(C)C(=O)C2CCCCC2)[C@@H](C)CN([C@@H](C)CO)C(=O)c2cc(NS(=O)(=O)c3ccccc3)ccc2O1
-1.3 | Cc1noc(C)c1NC(=O)Nc1ccc2c(c1)CC(=O)N([C@H](C)CO)C[C@@H](C)[C@@H](CN(C)Cc1ccncc1)O2
-3.6 | C[C@@H]1CN([C@H](C)CO)C(=O)Cc2cc(NS(=O)(=O)c3cccs3)ccc2O[C@H]1CN(C)S(=O)(=O)c1ccc(Cl)cc1
-0.7 | C[C@H](CO)N1C[C@H](C)[C@@H](CN(C)Cc2ccc(C(=O)O)cc2)Oc2ccc(NC(=O)Cc3ccccc3)cc2CC1=O
-1.1 | C[C@@H]1CN([C@@H](C)CO)C(=O)CCCn2cc(nn2)CO[C@H]1CN(C)C(=O)c1ccc2ccn(C)c2c1
-0.5 | Cc1noc(C)c1S(=O)(=O)N(C)C[C@@H]1Oc2c(cccc2N(C)C)C(=O)N([C@@H](C)CO)C[C@H]1C
1.0 | C[C@@H]1CN([C@@H](C)CO)C(=O)c2cc(NC(=O)C3CC3)ccc2O[C@@H]1CN(C)Cc1ccc(C(F)(F)F)cc1

In another format: two of the compounds above.
mol,Ran FRET
C[C@@H]1CN([C@@H](C)CO)C(=O)c2cc(NS(C)(=O)=O)ccc2O[C@@H](C)CCCCO[C@@H]1CN(C)Cc1ccncc1,-1.2
C[C@H](CO)N1C[C@H](C)[C@H](CN(C)C(=O)Nc2ccc(F)cc2)Oc2c(NS(=O)(=O)c3ccc(Cl)cc3)cccc2C1=O,0.6

Next part:
Ran FRET | Molecule
0.0 | C[C@@H]1CCCCO[C@H](CN(C)Cc2ccncc2)[C@H](C)CN([C@H](C)CO)C(=O)c2cc(NS(C)(=O)=O)ccc2O1
-1.9 | C[C@@H]1CCCCO[C@@H](CN(C)C)[C@H](C)CN([C@@H](C)CO)C(=O)c2cc(NC(=O)Cc3ccccc3)ccc2O1
7.7 | C[C@H](CO)N1C[C@H](C)[C@@H](CN(C)C(=O)Nc2ccc3c(c2)OCO3)Oc2ccc(NS(=O)(=O)c3cccs3)cc2CC1=O
-0.6 | C[C@@H]1CN([C@H](C)CO)C(=O)c2cccc(NC(=O)NC3CCCCC3)c2O[C@@H]1CN(C)Cc1ccncc1
-1.8 | Cc1noc(C)c1S(=O)(=O)Nc1cccc2c1O[C@H](CN(C)CC1CC1)[C@H](C)CN([C@H](C)CO)C2=O
2.4 | CC(C)NC(=O)Nc1ccc2c(c1)C(=O)N([C@H](C)CO)C[C@@H](C)[C@H](CN(C)C(=O)c1ccncc1)OCCCC[C@@H](C)O2
3.9 | C[C@@H]1CN([C@@H](C)CO)C(=O)c2cccc(NS(=O)(=O)c3ccccc3)c2O[C@@H]1CN(C)C(=O)NC1CCCCC1
0.3 | C[C@H](CO)N1C[C@H](C)[C@@H](CN(C)Cc2ccccc2)Oc2ccc(NC(=O)NC3CCCCC3)cc2CC1=O
-0.2 | C[C@H](CO)N1C[C@H](C)[C@@H](CN(C)S(=O)(=O)c2cn(C)cn2)Oc2c(NC(=O)c3nc4ccccc4s3)cccc2C1=O
1.6 | C[C@H]1CN([C@@H](C)CO)C(=O)c2cccc(NS(=O)(=O)c3ccccc3)c2O[C@@H]1CN(C)C

Fetched one by one from above (3):
Ran FRET | Molecule
3.9 | C[C@@H]1CN([C@@H](C)CO)C(=O)c2cccc(NS(=O)(=O)c3ccccc3)c2O[C@@H]1CN(C)C(=O)NC1CCCCC1
7.7 | C[C@H](CO)N1C[C@H](C)[C@@H](CN(C)C(=O)Nc2ccc3c(c2)OCO3)Oc2ccc(NS(=O)(=O)c3cccs3)cc2CC1=O
-0.6 | C[C@@H]1CN([C@H](C)CO)C(=O)c2cccc(NC(=O)NC3CCCCC3)c2O[C@@H]1CN(C)Cc1ccncc1

New compounds follow.
Ran FRET | Molecule
-3.2 | C[C@@H]1CCCCO[C@@H](CN(C)C(=O)CCC(F)(F)F)[C@H](C)CN([C@@H](C)CO)C(=O)c2cc(NS(=O)(=O)c3ccccc3)ccc2O1
-1.8 | C[C@@H]1CCCCO[C@H](CN(C)S(=O)(=O)c2cn(C)cn2)[C@H](C)CN([C@@H](C)CO)C(=O)c2cc(NS(C)(=O)=O)ccc2O1
-4.9 | C[C@@H]1CN([C@@H](C)CO)C(=O)c2cccc(NC(=O)c3ccncc3)c2O[C@@H]1CN(C)Cc1ccc(C(F)(F)F)cc1
0.6 | C[C@H]1CN([C@@H](C)CO)C(=O)c2cccc(NC(=O)c3ccncc3)c2O[C@H]1CN(C)C(=O)NC1CCCCC1
4.2 | C[C@@H]1CN([C@H](C)CO)C(=O)c2cc(NC(=O)CCCN(C)C)ccc2O[C@@H]1CN(C)Cc1ccc2c(c1)OCO2
-0.8 | C[C@@H]1CN([C@@H](C)CO)C(=O)CCCn2cc(nn2)CO[C@@H]1CN(C)C(=O)CCC(F)(F)F
2.5 | C[C@H](CO)N1C[C@H](C)[C@H](CN(C)S(=O)(=O)c2ccc(F)cc2)OCCCC[C@H](C)Oc2ccc(NC(=O)Nc3ccccc3)cc2C1=O
-1.1 | Cc1noc(C)c1S(=O)(=O)Nc1cccc2c1O[C@@H](CN(C)CC1CC1)[C@@H](C)CN([C@H](C)CO)C2=O
1.6 | C[C@@H]1CN([C@@H](C)CO)C(=O)CCCn2cc(nn2)CO[C@H]1CN(C)C(=O)OCc1ccccc1
-0.2 | Cc1cc(C(=O)Nc2cccc3c2O[C@@H](CN(C)S(=O)(=O)c2cccs2)[C@@H](C)CN([C@@H](C)CO)C3=O)n(C)n1

Additional entries
Ran FRET | Molecule
0.7 | C[C@H](CO)N1C[C@H](C)[C@@H](CN(C)Cc2ccc(-c3ccccc3)cc2)Oc2c(NS(=O)(=O)c3cccs3)cccc2C1=O
6.5 | Cc1noc(C)c1NC(=O)N(C)C[C@H]1Oc2c(cccc2N(C)C)C(=O)N([C@@H](C)CO)C[C@H]1C
6.0 | CNC[C@H]1Oc2ccc(NS(=O)(=O)c3ccc(Cl)cc3)cc2CC(=O)N([C@@H](C)CO)C[C@H]1C
-0.9 | C[C@@H]1CCCCO[C@H](CN(C)C)[C@@H](C)CN([C@@H](C)CO)C(=O)c2cc(NC(=O)Nc3ccccc3)ccc2O1
-0.2 | COc1ccc(S(=O)(=O)N(C)C[C@H]2Oc3ccc(NC(=O)c4ccncc4)cc3C(=O)N([C@@H](C)CO)C[C@H]2C)cc1
-4.5 | C[C@@H]1CCCCO[C@H](CN(C)Cc2ccccc2)[C@@H](C)CN([C@H](C)CO)C(=O)c2cc(NC(=O)Nc3ccc4c(c3)OCO4)ccc2O1
-0.6 | COc1ccc(CN(C)C[C@@H]2Oc3ccc(NC(=O)Cc4ccccc4)cc3C(=O)N([C@@H](C)CO)C[C@H]2C)cc1
-1.2 | CNC[C@H]1OCc2cn(nn2)CCCC(=O)N([C@H](C)CO)C[C@@H]1C
-5.7 | C[C@H](CO)N1C[C@H](C)[C@H](CN(C)S(=O)(=O)c2ccccc2)Oc2ccc(NC(=O)c3ccncc3)cc2CC1=O
3.4 | Cc1noc(C)c1NC(=O)Nc1cccc2c1O[C@@H](CN(C)Cc1ccccc1)[C@H](C)CN([C@@H](C)CO)C2=O

Exported field by field: 3 of the compounds above.
mol: C[C@H](CO)N1C[C@H](C)[C@@H](CN(C)C(=O)Nc2ccc3c(c2)OCO3)Oc2ccc(NS(=O)(=O)c3cccs3)cc2CC1=O
  Ran FRET: 7.7
mol: C[C@@H]1CN([C@H](C)CO)C(=O)c2cccc(NC(=O)NC3CCCCC3)c2O[C@@H]1CN(C)Cc1ccncc1
  Ran FRET: -0.6
mol: Cc1noc(C)c1S(=O)(=O)Nc1cccc2c1O[C@H](CN(C)CC1CC1)[C@H](C)CN([C@H](C)CO)C2=O
  Ran FRET: -1.8

More compounds follow.
Ran FRET | Molecule
2.7 | C[C@H](CO)N1C[C@H](C)[C@@H](CN(C)C(=O)Nc2ccc(F)cc2)Oc2c(NS(=O)(=O)c3ccc(Cl)cc3)cccc2C1=O
-0.5 | C[C@H](CO)N1C[C@H](C)[C@@H](CN(C)C(=O)NC2CCCCC2)Oc2c(NC(=O)Nc3ccc(F)cc3)cccc2C1=O
1.8 | C[C@@H]1CN([C@H](C)CO)C(=O)c2cccc(NS(C)(=O)=O)c2O[C@@H]1CN(C)CC1CC1
1.2 | C[C@H]1CN([C@@H](C)CO)C(=O)Cc2cc(NC(=O)Cc3cn(C)c4ccccc34)ccc2O[C@H]1CN(C)C(=O)Nc1ccccc1
7.9 | C[C@@H]1CN([C@H](C)CO)C(=O)Cc2cc(NC(=O)Nc3ccccc3)ccc2O[C@@H]1CN(C)Cc1ccc(C(=O)O)cc1
-2.6 | C[C@@H]1CCCCO[C@H](CN(C)S(=O)(=O)c2cccs2)[C@@H](C)CN([C@H](C)CO)C(=O)c2cc(NS(C)(=O)=O)ccc2O1

Compound activity as filed in PubChem BioAssay.

Some of the compounds tested, so the mix of outcomes need not match the whole.
